# Screening results: PubChem BioAssay, National Center for Advancing Translational Sciences (NCATS)
# ClpP mod: qHTS Assay for Activators of ClpP; ATP-dependent Clp protease proteolytic subunit (Bacillus subtilis (strain 168)), P80244; purified B. subtilis ClpP, FRET peptide cleavage, 20 min; Potency, µM (top dose mostly 57.5 µM), without a hit: at the top dose activity change, negative = active; actives 1.9% (n = 340,000); active = well fitted falling curve with a large enough effect; inconclusive = small, poorly fitted or top-dose-only effect; inactive = no such curve, though single readings can be large or run the other way; also: potency is read from the fitted curve at half-maximal effect; the source files actives as falling curves though it sought activators and does not explain the sign; nearly all actives have a fitted effect of over 65% in size; many hits overshoot -100%
# Target sequence (P80244 whole entry, looked up): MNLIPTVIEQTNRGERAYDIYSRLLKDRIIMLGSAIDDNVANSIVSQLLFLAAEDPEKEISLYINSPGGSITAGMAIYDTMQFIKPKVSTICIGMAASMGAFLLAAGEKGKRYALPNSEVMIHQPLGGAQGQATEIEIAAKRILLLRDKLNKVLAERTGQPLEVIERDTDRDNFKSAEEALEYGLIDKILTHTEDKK
#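 ClpP 10 microg/mL final, pH 8 Tris/KCl buffer with BSA, glycerol, Tween-20; compound pinned in; FRET-FV substrate; RT 20 min; Ex320/Em430; ΔFRET vs ADEP 5.8 microM, DMSO, no enzyme.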
# TRPV1 PAM: HTS Assay for Compounds that Act as Potentiators of the Vanilloid Receptor 1; potentiation, % at 8.33 µM; AID 540277, 2011; TRPV1-expressing cells, Fluo-8 calcium influx, capsaicin EC20 potentiation; host cell line not named in the record; control for the full effect not named in the record; actives 0.02% (n = 320,000); active means potentiation above 80%; inconclusive means 30% to 80%; inactive means below 30%; also: 0% is about no effect
# Target sequence (Q8NER1 whole entry, looked up): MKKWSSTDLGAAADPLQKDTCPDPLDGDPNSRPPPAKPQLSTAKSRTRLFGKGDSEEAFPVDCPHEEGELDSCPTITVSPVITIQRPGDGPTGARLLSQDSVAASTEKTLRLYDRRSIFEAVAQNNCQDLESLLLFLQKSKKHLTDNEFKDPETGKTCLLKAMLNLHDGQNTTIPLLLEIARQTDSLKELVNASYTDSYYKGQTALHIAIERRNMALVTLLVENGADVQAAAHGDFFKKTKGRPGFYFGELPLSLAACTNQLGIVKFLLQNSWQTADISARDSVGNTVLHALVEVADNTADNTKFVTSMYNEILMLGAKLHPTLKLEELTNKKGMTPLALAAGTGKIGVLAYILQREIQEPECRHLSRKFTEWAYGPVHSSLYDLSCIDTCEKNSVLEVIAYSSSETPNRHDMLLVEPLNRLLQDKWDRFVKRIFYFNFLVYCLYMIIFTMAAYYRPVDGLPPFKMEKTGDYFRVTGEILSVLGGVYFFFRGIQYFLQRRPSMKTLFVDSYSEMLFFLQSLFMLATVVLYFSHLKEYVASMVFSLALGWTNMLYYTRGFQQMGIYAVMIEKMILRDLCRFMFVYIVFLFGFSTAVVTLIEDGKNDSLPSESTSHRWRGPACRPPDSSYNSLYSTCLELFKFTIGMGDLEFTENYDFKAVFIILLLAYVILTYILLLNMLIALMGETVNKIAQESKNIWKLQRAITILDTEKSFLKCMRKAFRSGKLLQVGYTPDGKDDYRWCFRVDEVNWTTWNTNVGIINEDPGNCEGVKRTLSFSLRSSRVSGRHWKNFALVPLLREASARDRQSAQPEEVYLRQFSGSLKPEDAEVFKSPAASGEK
#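 TRPV1-expressing cells were cultured overnight at 35.5C and loaded with Fluo-8 calcium dye for 40 to 90 min at room temperature. After a 10 s baseline, compound was added and calcium influx was read kinetically for 3 min (ex 480/em 520 nm).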
# Sfp inh: qHTS Assay for Inhibitors of Bacillus subtilis Sfp phosphopantetheinyl transferase (PPTase) | Biochemical Sfp PPTase activity, qHTS | Potency, µM, for inactives: max response, negative = inhibition, usual class: inhibitors | actives 3.5% (n = 310,000); active = well fitted inhibition curve with a large enough effect; inconclusive = small, poorly fitted or top-dose-only effect, or another doubt; inactive = no such curve, though single readings can be large or run the other way;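 also: the enzyme is Sfp with the accession as filed and its product quenches rhodamine fluorescence; potency is read from the fitted curve at half-maximal effect; 0% = enzyme reaction without inhibitor and -100% = no enzyme wells; top concentration of the series not given in the record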
#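 Buffer: 50 mM Hepes-Na pH 7.6, 10 mM MgCl2, 0.01% Nonidet P-40, 0.01% BSA. Enzyme 15 nM, pre-exposed to compound 15 min; substrates then added and fluorescence change tracked over 30 min.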
# gsp antag: qHTS for Antagonists of gsp, the Etiologic Mutation Responsible for Fibrous Dysplasia/McCune-Albright Syndrome: qHTS; AID 624288, 2012; gsp-mutant cells, cAMP HTRF, 30 min; control for the full effect not named in the record; actives 0.4% (n = 340,000); Potency, µM (doses to about 76.9 µM), for the others: at the highest dose activity change, negative = inhibition, actives largely listed as inhibitors; active = falling curve of any shape with a large fitted effect; inconclusive = falling curve, mostly with a smaller effect; inactive = flat or rising curve; cell line not stated here;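 also: intracellular cAMP measured with PDE inhibitor Ro 20-1724 present during compound exposure; potency is read from the fitted curve at half-maximal effect; % is scaled to controls: 0 for no effect and ±100 for the full control effect; nearly all actives have a fitted effect of over 65% in size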
#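 HTRF cAMP measurement after 30 min RT detection following 30 min, 37C compound treatment alongside […] (added as 300 uM solution) in G418-selected cells seeded at 2000/well and grown 16–24 h.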
# gsp ag: qHTS for Agonist of gsp, the Etiologic Mutation Responsible for Fibrous Dysplasia/McCune-Albright Syndrome: qHTS | gsp mutant cells, cAMP HTRF, 30 min; control for the full effect not named in the record | Potency, µM (highest dose often 76.9 µM), for the others: top-dose activation (cAMP increase), actives largely listed as activators | actives 0.13% (n = 340,000) | AID 624287, 2012; active = well fitted activation curve with a large enough effect; inconclusive = small, poorly fitted or top-dose-only effect, or another doubt; inactive = no such curve, though single readings can be large or run the other way; cell line not stated here;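 also: phosphodiesterase inhibitor Ro 20-1724 added with compounds to block cAMP breakdown; potency is read from the fitted curve at half-maximal effect; nearly all actives have a fitted effect of over 60% in size; about a fifth of the inactives were tested at one dose only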
#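 Cells in DMEM/10% FBS with G418 were pretreated with compounds in DMSO plus […] (300 uM stock) for 30 min at 37C. cAMP was measured by HTRF (cAMP-d2 plus anti-cAMP antibody-K) after 30 min at room temperature.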
# Menin MLL FP FL: qHTS Assay for Inhibitors Targeting the Menin-MLL Interaction in MLL Related Leukemias: Competition With Fluorescein Labeled MLL-derived Peptide | FP activity change, % at 61.4 µM | Fluorescence polarization, fluorescein-MLL peptide displacement from menin | 290,000 tested, under 10 active; inconclusive = falling polarisation curve, or a change in total fluorescence; inactive = total fluorescence flat and polarisation flat or rising; no compound was filed as active; the % refers to the polarisation; negative = inhibition;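 also: % of control where 0% means no effect; inhibitors lower the polarisation; unlabelled MLL peptide was the positive control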
# TRPML1 inh: qHTS for Inhibitors of the Human Mucolipin Transient Receptor Potential 1 (TRPML1); activity change, negative = inhibition, % (test concentration not listed); actives 0.02% (n = 390,000); TRPML1-inducible cells, Ca2+ dye fluorescence, FDSS; active compounds read low; inhibition of EC80 agonist-evoked calcium signal; Mucolipin-1 (Homo sapiens), Q9GZU1; in the data active means activity change below about -50%; inconclusive means about -30% to -50%; inactive means above about -30%;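 also: stimulus is agonist 54-4 at its EC80 concentration; % is scaled to controls: 0 for no effect and ±100 for the full control effect; compound concentration not given in the record; the text of the record puts the active cut at -80%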
#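 Tet-induced TRPML1-DL cells loaded with Ca8 no-wash calcium dye were read kinetically on FDSS. Compound addition was followed by EC80 agonist 54-4 (4 uM final); inhibition was read over 110 s.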
# An asterisk follows results filed as active; ? = inconclusive; · = not tested or not shown; & = joins results of further samples; [ ] = another dose, or the depositor's remark. An excerpt; count on the stated rates, not on these rows.
cpd	structure	TRPML1 inh	gsp ag	Sfp inh	Menin MLL FP FL
1	COc1ccc(C2NCc3ccc4c(c3-n3cccc32)OCO4)cc1O (stereo not given)	10	?	-19%	-1.0
2	CCOP(=O)(OCC)C(NC(=O)c1ccc(C)cc1)=C(Cl)Cl	-3	15%[15.4 µM]	2%	3.3
3	CN1CCc2nc(SCc3cccc(Br)c3)c(C#N)cc2C1	18	-4%[15.4 µM]	-27%	4.1
4	CCCCCCn1c(O)c(C=NC2CCN(Cc3ccccc3)CC2)c(=O)[nH]c1=O	-3	?	0%	3.6
5	O=C1CC(N2CC=C(c3ccc(F)cc3)CC2)C(=O)N1c1ccc(F)cc1 (stereo not given)	-3	7%	3%	4.2
6	C[C@]12CCC3C(CC[C@H]4C[C@H](O)CC[C@]34C)C1C[C@H](O)[C@@H]2O (stereo not given in full)	3	-6%[15.4 µM]	·	·
7	C=CCn1c(O)c(C(C)=NCc2ccc3c(c2)OCO3)c(=O)[nH]c1=O	-7	4%[15.4 µM]	3%	0.3
8	Cn1c(O)c(C=Nc2ccccc2Sc2ccccc2)c(=O)n(C)c1=O	-15	-12%	4%	0.0
9	COC(=O)CCCC(NC(=S)N1CC2C[C@@H](C1)Cn1c2cccc1=O)C(=O)OC (stereo not given in full)	11	0%	23%	1.1
10	CSc1ccc(C(c2c(O)c3ccccc3oc2=O)c2c(C)n(C)n(-c3ccccc3)c2=O)cc1 (stereo not given)	2&7	-6%	-10%	1.2

cpd	TRPV1 PAM	gsp antag	ClpP mod
1	-24	13%	1.6%
2	11	12%	·
3	9	13%	62%
4	-1	10%	-7.1%
5	-4	-12%	-5.4%
6	·	-2%	-5.1%
7	9	5%	·
8	4	-3%	1.4%
9	-7	8%	-1.9%
10	-1	-7%	-6.3%&-3.4%

# (continued)
cpd	structure	TRPML1 inh	gsp ag	Sfp inh	Menin MLL FP FL
11	Fc1ccc(CNCCc2ccccc2F)cc1	9	-9%	3%	0.1
12	Cc1ccc(N2C(=O)/C(=C/N3CCN(C(=O)c4ccco4)CC3)C(=O)NC2=S)cc1C	-12	-7%	45µM*	22
13	CN1CCN(c2ncnc3c2cnn3C)CC1	15	?	9%	-5.6
14	CCC/C(=N\O)c1c[nH]c2ccccc12	-15	13%	-3%	7.6
15	C=CC1CN2CCC1CC2C(OC(C)=O)c1ccnc2ccc(OC)cc12 (stereo not given)	6	20%[15.4 µM]	17%	2.7
16	Cc1cccn2c(NCC3CCCO3)c(C(C)C)nc12 (stereo not given)	5	23%	-4%	1.2
17	O=C(CNC(=O)c1ccc(Br)cc1)NCC(=O)OCC(=O)c1ccc([N+](=O)[O-])cc1	2	-1%[15.4 µM]	-30%	5.4
18	O=c1[nH]c(=S)n(Cc2ccc(F)cc2)c(O)c1C=NCC1CCCO1 (stereo not given)	21	1%	3%	6.9
19	COc1ccc2c(CCN)c[nH]c2c1	20	-38%[inhibitor]	12%&10%	?
20	COc1ccc(/C=C2\C(=O)NC(=S)N(C)C2=O)cc1C	-11	-5%[15.4 µM]	18µM*	4.7

cpd	TRPV1 PAM	gsp antag	ClpP mod
11	3	13%	-2.7%
12	-4	-1%	-4.0%
13	4	8%	0.0%
14	3	-11%[15.4 µM]	0.9%
15	·	-1%	-2.0%
16	18	-4%	22µM*
17	-4	7%	58%
18	-8	-15%	-1.0%
19	-7	-18%	-10%
20	-9	-17%	·

# Among those listed so far, these contain an aryl thioether with sulfur outside any ring:
cpd	structure	TRPML1 inh	gsp ag	Sfp inh	Menin MLL FP FL
3	CN1CCc2nc(SCc3cccc(Br)c3)c(C#N)cc2C1	18	-4%[15.4 µM]	-27%	4.1
8	Cn1c(O)c(C=Nc2ccccc2Sc2ccccc2)c(=O)n(C)c1=O	-15	-12%	4%	0.0
10	CSc1ccc(C(c2c(O)c3ccccc3oc2=O)c2c(C)n(C)n(-c3ccccc3)c2=O)cc1 (stereo not given)	2&7	-6%	-10%	1.2

cpd	TRPV1 PAM	gsp antag	ClpP mod
3	9	13%	62%
8	4	-3%	1.4%
10	-1	-7%	-6.3%&-3.4%

# Going on with the list.
cpd	structure	TRPML1 inh	gsp ag	Sfp inh	Menin MLL FP FL
21	C[C@@H]1CN([C@H](C)CO)C(=O)c2c(c3ccccc3n2C)-c2ccccc2CO[C@H]1CN(C)Cc1ccc(-c2ccccc2)cc1	25	-15%	·	·
22	c1ccc2nc(OCCN3CC3)ccc2c1	-5	16%	-8%	3.0
23	CCOC(=O)CC(NC(=O)C(Cc1ccc(N(CCCl)CCCl)cc1)NC(C)=O)C(=O)OCC (stereo not given)	7	-5%[15.4 µM]	79µM*	-0.8
24	CCCOP(=O)(OCCC)C(NC(=O)c1ccccc1)=C(Cl)Cl	-6	4%	7%	0.4
25	O=C(C(=O)N1CCOCC1)c1cn(CCCOc2ccccc2)c2ccccc12	-8	29%	-13%	0.4
26	COC(=O)C1=C(c2cc3ccccc3o2)C[C@@H]2CC[C@H]1N2C(=O)NCc1ccco1	8	-29%	·	·
27	CCCCn1c(=O)c(C=Nc2ccc(Cl)cc2)c(O)n(Cc2ccco2)c1=O	13	1%[15.4 µM]	2%	13
28	O=C(Cc1ccccc1)OCC(=O)N1CCN(S(=O)(=O)c2ccc(Cl)cc2)CC1	20	-19%[15.4 µM]	·	·
29	COc1ccc(OCC#CCN2CCC(C)CC2)cc1	1	-45%[15.4 µM]	-21%	-2.7
30	C=CCOC(=O)c1ccccc1N	-11	·	·	·

cpd	TRPV1 PAM	gsp antag	ClpP mod
21	·	·	?
22	8	6%	·
23	-5	-8%	·
24	-26	13%	0.5%
25	-25	-10%	·
26	·	-11%	-0.7%
27	11	-21%	·
28	15	10%	·
29	5	9%	·
30	-3	-4%	3.6%

# Next records follow:
cpd	structure	TRPML1 inh	gsp ag	Sfp inh	Menin MLL FP FL
31	CCc1nn(CC(=O)N2CCC3(CC2)OCCO3)c(=O)c2cccn12	-2	2%	7%	·
32	Cc1ccc(CN2CCN(Cc3ccccc3)CC2)cc1	-11	24%	7%	-2.3
33	CN1C(=O)C(c2ccccc2)C(=O)N(C)C1=O	-10	6%[15.4 µM]	·	·
34	C1CCC(NC2CCCCC2)CC1	-3	·	13%	1.8
35	CC(=CCOc1ccc2ccc(=O)oc2c1)C1=CC(=O)C(C)(C)O1	-2	0%	·	·
36	O=C1C(c2ccccc2)=C(N2CC2)c2ccccc21	16	-2%	8%	-0.2
37	COc1ccc(C(c2nnnn2CC2CCCO2)N2CCN(c3ccccc3)CC2)cc1 (stereo not given)	2	-4%	?	-0.4
38	O=C(NC1CN2CCC1CC2)c1cc(Cl)c([N+](=O)[O-])c2nc[nH]c12 (stereo not given)	-14	-6%	-9%	-1.3
39	O=C(c1ccccc1F)N1CCC2(CC1)OCCO2	5	0%	1%	-8.0
40	CCOC(=O)c1c(C)n(C(C)C)c2ccc(OC(=O)c3ccc(N4C(=O)CCC4=O)cc3)cc12	1	9%[15.4 µM]	-7%	2.1

cpd	TRPV1 PAM	gsp antag	ClpP mod
31	7	7%	·
32	-2	2%	-1.4%
33	·	12%	·
34	-7	7%	-0.8%
35	·	·	4.5%
36	2	-8%	-1.9%
37	-6	-5%	-0.8%
38	2	2%	-2.2%
39	-1	0%	·
40	-1	-6%	-1.9%

# The list goes on:
cpd	structure	TRPML1 inh	gsp ag	Sfp inh	Menin MLL FP FL
41	CCCCOC(=O)c1ccccc1N	-8	·	·	·
42	O=C1NC(=O)N(Cc2ccc(F)cc2)C(=O)/C1=C/c1cccs1	10	-14%[15.4 µM]	45µM*	?
43	Cn1c(O)c(C=NC2CCN(Cc3ccccc3)CC2)c(=O)[nH]c1=O	-21	-6%[15.4 µM]	8%	-2.1
44	COc1cc(CN=C(C)c2c(O)n(C)c(=O)n(C)c2=O)cc(OC)c1	-3	7%[15.4 µM]	13%	1.4
45	CCOc1cc2c(cc1OCC)-n1cccc1C(c1cccc([N+](=O)[O-])c1)NC2 (stereo not given)	-12	-12%	-4%	3.1
46	CCN1CCN(c2nc3c(c(=O)[nH]2)CCCC3)CC1	9	-8%	21%	4.7
47	COC(=O)CCCNC(=O)CN1CC(c2ccccc2)CC1=O (stereo not given)	23	1%	3%	-0.3
48	Nc1ccccc1C(=O)OCCc1ccccc1	0	·	·	·
49	COc1ccc2[nH]c3c(c2c1)CCN=C3C	-10	·	-10%	?
50	Cc1nc2ccccc2c(=O)n1-c1cccnc1	0	1%	16%	1.7

cpd	TRPV1 PAM	gsp antag	ClpP mod
41	·	-9%	4.1%
42	-6	1%	-0.8%
43	2	0%	9.0%
44	7	3%	0.4%
45	-2	-14%	0.2%
46	10	5%	-4.0%
47	16	2%	-0.5%
48	-5	-3%	4.2%
49	9	1%	-23%
50	9	10%	-3.5%

# (further entries)
cpd	structure	TRPML1 inh	gsp ag	Sfp inh	Menin MLL FP FL
51	CCCCOc1ccc(C(C)=O)cc1Cc1c(O)[nH]c(=S)[nH]c1=O	4	19%	?	3.3
52	CC(C)CC1C(=O)N(Cc2cn(CC3CCCCC3)nn2)CCS(=O)(=O)N1Cc1ccc(-c2ccc(F)nc2)cc1 (stereo not given)	6	-41%[inhibitor]	·	·
53	Clc1ccc(C(OCCN2CCCCC2)c2ccccc2)cc1 (stereo not given)	24	·	-3%	0.9
54	COC(=O)Cn1cc(C=C2C(=O)N(C)C(=O)N(C)C2=O)c2ccccc21	15	0%	-17%	?
55	CN(C)c1nc(N(C)C)nc(N(C#N)CCCl)n1	-4	-8%[15.4 µM]	?	4.5

cpd	TRPV1 PAM	gsp antag	ClpP mod
51	-3	4%	-0.1%
52	·	·	2.0%
53	-11	-6%	0.9%
54	?	2%	0.9%
55	-13	·	·
